Vaccinia stage = Vaccinia orthopox stage-specific inhibition; Vaccinia-infected cells, mCherry/Venus stage reporter fluorescence; stronger effect = lower value; some inactives read as strong as hits; activity change (mCherry), % (no concentration beside the values); 89,000 tested, 0.01% active; AID 1053133;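 active = mCherry past -33% and 40 or more points under the early reporter, replicates agreeing; inconclusive = past -33% without that gap or agreement; tested in A549 cells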;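 also: scaled between vehicle wells and reference inhibitor wells; 23 nL library stock went into each well; one replicate is shown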
Vaccinia stage Venus = also measured in Vaccinia stage; calls as there; activity change (Venus), %; measured here: Venus reporter, other viral stage;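 negative = less Venus signal; first of two replicates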
* hit, by the source's call; u = inconclusive; x = not tested or not shown; & = joins results of further samples.

SMILES | Vaccinia stage | Vaccinia stage Venus
C[C@H]1CN([C@@H](C)CO)C(=O)c2cc(C#Cc3cccc(F)c3)cnc2O[C@@H]1CN(C)CC1CCCC1 | u | x
CC(C)NC(=O)Nc1ccc2c(c1)C(=O)N([C@@H](C)CO)C[C@H](C)[C@H](CN(C)Cc1ccc(C(F)(F)F)cc1)O2 | -5 | 7
C[C@@H]1CN([C@@H](C)CO)C(=O)c2cccc(NC(=O)c3ccncc3)c2O[C@H]1CN(C)C(=O)Nc1ccc2c(c1)OCO2 | 9 | 7
COc1ccc(NC(=O)Nc2ccc3c(c2)CC(=O)N([C@H](C)CO)C[C@@H](C)[C@@H](CN(C)CC2CC2)O3)cc1 | -7 | -2
COc1ccc(-c2ccc3c(c2)[C@H]2[C@H](CCN2S(=O)(=O)c2ccc(OC)cc2)[C@@H](CO)N3C)cc1 | u | x
O=C(NCc1ccccc1)C1=C[C@@H](c2ccccc2)C[C@@H](OCc2ccc(CO)cc2)O1 | -11 | -5
C[C@@H]1CCCCO[C@H](CN(C)Cc2ccc3c(c2)OCO3)[C@H](C)CN([C@@H](C)CO)C(=O)c2cc(NC(=O)Nc3ccc(F)cc3)ccc2O1 | u | x
C[C@H]1CN([C@@H](C)CO)C(=O)CCCn2nncc2CO[C@@H]1CN(C)C(=O)Oc1ccc2ccccc2c1 | -3 | 1
CCCNC(=O)N1CC2(CCN(C(=O)CC3CC3)CC2)c2c(n(C)c3cc(OC)ccc23)[C@@H]1CO | 15 | 11
C[C@@H]1CN([C@H](C)CO)C(=O)c2cc(Br)cnc2O[C@H]1CN(C)Cc1cccnc1 | 7 | 5
C[C@H]1CN([C@@H](C)CO)C(=O)c2cc(NC(=O)Cc3cn(C)c4ccccc34)ccc2O[C@H]1CN(C)Cc1ccc(Oc2ccccc2)cc1 | -8 | -4
CC(=O)N[C@@H]1CC[C@@H](CCNC(=O)Nc2ccc(C(F)(F)F)cc2)O[C@@H]1CO | -9 | -6
COc1ccc(NC(=O)N(C)C[C@@H]2Oc3c(NC(=O)Nc4ccc(F)cc4)cccc3C(=O)N([C@@H](C)CO)C[C@@H]2C)cc1 | -22 | -12
CN1c2ccc(Br)cc2[C@@H]2[C@@H](CCN2C(=O)Cc2ccccc2)[C@@H]1CO | u | x
CNC(=O)C[C@H]1CC[C@@H]2[C@@H](COc3ccc(NC(=O)c4cc(F)cc(F)c4)cc3C(=O)N2C)O1 | 6 | 5
CN1C(=O)c2cc(NC(=O)Cc3ccccc3)ccc2OC[C@@H]2O[C@@H](CC(=O)NCC3CC3)CC[C@H]21 | -2 | -5
O=C(C[C@@H]1C[C@H]2c3cc(NC(=O)Nc4ccccc4)ccc3O[C@H]2[C@@H](CO)O1)NC1CCCCC1 | 7 | -2
Cc1ccc(S(=O)(=O)Nc2ccc3c(c2)C(=O)N([C@@H](C)CO)C[C@H](C)[C@@H](CN(C)S(=O)(=O)c2ccc(C)cc2)O3)cc1 | 13 | 14
CC(=O)N[C@H]1CC[C@H](CC(=O)NCC2CCCCC2)O[C@@H]1CO | -5 | 13
COc1ccc(CN(C)C[C@@H]2Oc3c(NS(=O)(=O)c4cccs4)cccc3C(=O)N([C@@H](C)CO)C[C@@H]2C)cc1 | 16 | -3
C[C@H](CO)N1C[C@H](C)[C@H](CN(C)C(=O)CN(C)C)Oc2cc(C#C[C@@H](C)O)ccc2S1(=O)=O | 3 | 0
COc1ccccc1NC(=O)N1CCCCN2[C@@H](CO)[C@@H](c3ccc(C#Cc4ccccc4)cc3)[C@@H]2C1 | u | x
Cc1noc(C)c1S(=O)(=O)Nc1ccc2c(c1)C(=O)N([C@@H](C)CO)C[C@H](C)[C@H](CN(C)C(=O)CCC(F)(F)F)OCCCC[C@H](C)O2 | 3 | 4
N#C[C@H]1[C@H](c2ccccc2C2=CCCC2)[C@H](CO)N1C(=O)NC1CCCCC1 | -32 | -18
COc1ccc2c3c(n(C)c2c1)[C@@H](CO)N(Cc1ccncc1)CC31CN(C(=O)C2CCCC2)C1 | 4 | 1
CCCNC(=O)C[C@H]1CC[C@@H]2[C@H](COC[C@@H](O)CN2CC2CCCCC2)O1 | 1 | -6
O=C(NCC[C@@H]1CC[C@H](NC(=O)c2cccnc2)[C@H](CO)O1)Nc1ccc(F)cc1 | 5 | 11
O=C(C[C@@H]1CC[C@H]2[C@@H](COC[C@@H](O)CN2C(=O)C2CC2)O1)NCc1ccncc1 | 2 | 2
CCCNC(=O)Nc1ccc2c(c1)C(=O)N(C)C[C@H](OC)[C@@H](C)CN(Cc1cccnc1)[C@@H](C)CO2 | 2 | 0
COc1ccc2c3c([nH]c2c1)[C@@H](CO)N(C)CC31CN(C(=O)c2ccccc2F)C1 | -7 | -3
CCCC(=O)Nc1ccc2c(c1)C(=O)N(C)C[C@@H](OC)[C@@H](C)CN(C(=O)c1cnccn1)[C@@H](C)CO2 | 18 | 4
COCC(=O)N(C)C[C@H]1Oc2cc(-c3cccc(F)c3)ccc2S(=O)(=O)N([C@H](C)CO)C[C@@H]1C | -5 | 0
CO[C@H]1CN(C)C(=O)c2cc(NC(=O)c3cnccn3)ccc2OC[C@H](C)N(C)C[C@H]1C | 4 | 11
CNC[C@H]1Oc2ccc(NC(=O)Nc3ccc4c(c3)OCO4)cc2C(=O)N([C@H](C)CO)C[C@@H]1C | 9 | 4
COc1ccc(S(=O)(=O)N(C)C[C@@H]2Oc3ccc(NC(=O)C4CCCCC4)cc3C(=O)N([C@H](C)CO)C[C@H]2C)cc1 | -2 | -1
CN1c2ccc(Br)cc2[C@@H]2[C@@H](CCN2S(=O)(=O)c2ccc(F)cc2)[C@@H]1CO | -28 | -31
COc1ccc2c3c(n(C)c2c1)[C@H](CO)N(C(=O)c1ccc(F)cc1)CC31CN(C(=O)c2ccc(F)cc2)C1 | 1 | -10
COc1ccc(S(=O)(=O)N(C)C[C@@H]2Oc3c(NC(=O)c4cnccn4)cccc3C(=O)N([C@@H](C)CO)C[C@@H]2C)cc1 | -2 | 4
C[C@@H](NC(=O)[C@@H]1[C@@H](CO)[C@@H]2Cn3c(ccc(C4=CCCC4)c3=O)[C@@H]2N1C)c1ccccc1 | 28 | 11
Cc1ccccc1-c1ccc2c(c1)O[C@@H](CN(C)C(=O)Nc1ccc(C(F)(F)F)cc1)[C@H](C)CN([C@H](C)CO)S2(=O)=O | u | x

In the list so far, these contain bromine:
SMILES | Vaccinia stage | Vaccinia stage Venus
C[C@@H]1CN([C@H](C)CO)C(=O)c2cc(Br)cnc2O[C@H]1CN(C)Cc1cccnc1 | 7 | 5
CN1c2ccc(Br)cc2[C@@H]2[C@@H](CCN2C(=O)Cc2ccccc2)[C@@H]1CO | u | x
CN1c2ccc(Br)cc2[C@@H]2[C@@H](CCN2S(=O)(=O)c2ccc(F)cc2)[C@@H]1CO | -28 | -31

Later entries.
SMILES | Vaccinia stage | Vaccinia stage Venus
C[C@@H]1CN([C@@H](C)CO)S(=O)(=O)c2ccc(C#CC3CCCC3)cc2O[C@H]1CN(C)C(=O)Cc1ccncc1 | u | x
C[C@@H]1CN([C@@H](C)CO)C(=O)c2cccc(NC(=O)NC3CCCCC3)c2O[C@@H]1CN(C)C(=O)Nc1ccc(C(F)(F)F)cc1 | u | x
CCC(=O)Nc1ccc2c(c1)OC[C@@H](C)N(C(=O)CC1CC1)C[C@H](C)[C@H](OC)CN(C)C2=O | 11 | 8
O=C(N[C@H]1CC[C@@H](CCn2cc(-c3ccccn3)nn2)O[C@@H]1CO)c1cccnc1 | 11 | 10
COc1ccc(S(=O)(=O)Nc2cccc3c2O[C@@H](CN(C)C(=O)Nc2ccc(C(F)(F)F)cc2)[C@H](C)CN([C@H](C)CO)C3=O)cc1 | -11 | -5
Cc1noc(C)c1S(=O)(=O)N(C)C[C@H]1Oc2c(NC(=O)c3cnccn3)cccc2C(=O)N([C@H](C)CO)C[C@H]1C | 4 | 8
CO[C@H]1CN(C)C(=O)c2cc(NS(C)(=O)=O)ccc2OC[C@H](C)N(C(=O)CN(C)C)C[C@@H]1C | 34 | 17
O=C(C[C@@H]1CC[C@@H]2[C@H](COC[C@H](O)CN2C(=O)c2ccncc2)O1)NCc1cc(F)cc(F)c1 | 7 | 4
COc1ccc(S(=O)(=O)Nc2ccc3c(c2)C(=O)N([C@@H](C)CO)C[C@H](C)[C@@H](CN(C)Cc2ccc(Cl)c(Cl)c2)O3)cc1 | -9 | -13
O=C(C[C@@H]1CC[C@H]2[C@@H](COC[C@H](O)CN2C(=O)Nc2cccc(Cl)c2)O1)NCC1CCCCC1 | -27 | -19
C/C=C/c1ccc2c(c1)O[C@@H](CN(C)Cc1ccc(F)cc1)[C@H](C)CN([C@H](C)CO)S2(=O)=O | u | x
O=C(CN1CCOCC1)NCC[C@@H]1CC[C@H](NC(=O)Nc2ccccc2)[C@H](CO)O1 | 18 | 20
COc1ccccc1CNC(=O)C[C@H]1C=C[C@@H](NC(C)=O)[C@H](CO)O1 | 5 | 8
O=C(C[C@H]1CC[C@H]2[C@@H](COC[C@H](O)CN2CC2CCCC2)O1)NCC1CC1 | 9 | 5
C[C@@H]1CN([C@@H](C)CO)C(=O)Cc2cc(NC(=O)Nc3ccc(C(F)(F)F)cc3)ccc2O[C@H]1CN(C)Cc1ccc(C(=O)O)cc1 | 12 | 16
Cc1noc(C)c1NC(=O)N(C)C[C@@H]1Oc2cc(C#CCN(C)C)ccc2S(=O)(=O)N([C@@H](C)CO)C[C@H]1C | 34 | 12
COc1ccc(S(=O)(=O)Nc2ccc3c(c2)C(=O)N([C@H](C)CO)C[C@H](C)[C@@H](CN(C)C(=O)NC2CCCCC2)OCCCC[C@H](C)O3)cc1 | -10 | -4
O=C(c1ccncc1)N1CC2(C1)[C@H](c1ccccc1)[C@H](CO)N2CC1CC1 | 14 | 15
CCCN(C)C[C@H]1Oc2cc(C#CC3CCCC3)ccc2S(=O)(=O)N([C@H](C)CO)C[C@H]1C | -32 | -22
CO[C@@H]1CN(C)C(=O)c2ccc(NS(=O)(=O)c3cccc(F)c3)cc2OC[C@@H](C)N(Cc2cc(F)ccc2F)C[C@H]1C | -25 | -12

Whole records, looked up by structure:
C[C@H]1CN([C@@H](C)CO)C(=O)CCCn2nncc2CO[C@@H]1CN(C)C(=O)Oc1ccc2ccccc2c1 reads Vaccinia stage = -3; Vaccinia stage Venus = 1
COc1ccc(S(=O)(=O)Nc2ccc3c(c2)C(=O)N([C@@H](C)CO)C[C@H](C)[C@@H](CN(C)Cc2ccc(Cl)c(Cl)c2)O3)cc1 reads Vaccinia stage = -9; Vaccinia stage Venus = -13

Reformatted with tabs: entries from further up
SMILES	Vaccinia stage	Vaccinia stage Venus
COCC(=O)N(C)C[C@H]1Oc2cc(-c3cccc(F)c3)ccc2S(=O)(=O)N([C@H](C)CO)C[C@@H]1C	-5	0
CO[C@H]1CN(C)C(=O)c2cc(NC(=O)c3cnccn3)ccc2OC[C@H](C)N(C)C[C@H]1C	4	11

Further results:
SMILES | Vaccinia stage | Vaccinia stage Venus
C[C@H]1CN([C@@H](C)CO)C(=O)CCCn2cc(nn2)CO[C@@H]1CN(C)S(=O)(=O)c1ccc(Oc2ccccc2)cc1 | 2&-4 | -11&-7
COc1ccc(NC(=O)Nc2ccc3c(c2)CC(=O)N([C@@H](C)CO)C[C@H](C)[C@@H](CN(C)Cc2ccncc2)O3)cc1 | 25 | 19
CO[C@H]1CN(C)C(=O)c2ccc(NS(C)(=O)=O)cc2OC[C@H](C)N(C(=O)C2CCOCC2)C[C@H]1C | 8 | -1
COc1ccc(NC(=O)Nc2ccc3c(c2)[C@H]2C[C@H](CC(=O)N4CCc5ccccc5C4)O[C@@H](CO)[C@H]2O3)cc1 | -5 | -2
CCCNC(=O)N1C[C@H](O)COC[C@@H]2O[C@@H](CC(=O)NCCCN3CCOCC3)CC[C@H]21 | 3 | 3
CC(C)NC(=O)N(C)C[C@@H]1Oc2ccc(NS(=O)(=O)c3ccc(F)cc3)cc2C(=O)N([C@@H](C)CO)C[C@@H]1C | 15 | 10
CC(=O)N(C)C[C@H]1Oc2cc(C#CCN(C)C)ccc2S(=O)(=O)N([C@H](C)CO)C[C@@H]1C | 22 | 5
CC(=O)N[C@@H]1C=C[C@@H](CC(=O)NCc2ccc(Cl)cc2)O[C@H]1CO | 4 | 6
COCC(=O)N1C[C@H](C)[C@H](OC)CN(C)C(=O)c2ccc(NC(=O)c3cc(C)on3)cc2OC[C@H]1C | 2 | -3
C[C@@H]1CN([C@H](C)CO)C(=O)Cc2cc(NS(C)(=O)=O)ccc2O[C@H]1CN(C)Cc1ccc2c(c1)OCO2 | -5 | 4
Cc1ccccc1S(=O)(=O)N1C[C@@H](O)COC[C@@H]2O[C@@H](CC(=O)N3CCN(C)CC3)CC[C@H]21 | -11 | 2
CCCN(C)C[C@H]1OCCCC[C@@H](C)Oc2ccc(NS(=O)(=O)c3c(C)noc3C)cc2C(=O)N([C@@H](C)CO)C[C@H]1C | 7 | 4
O=C(c1cccnc1)N1C[C@H]2[C@@H](c3ccccc31)[C@@H](CO)N2C(=O)C1CCOCC1 | 16 | 6
C[C@H](C(=O)N(C)C[C@H]1OCc2ccccc2-c2c(n(C)c3ccccc23)C(=O)N([C@@H](C)CO)C[C@H]1C)c1ccccc1 | u | x
Cn1cnc(S(=O)(=O)N2CCCCN3[C@H](CO)[C@H](c4ccc(-c5ccccc5)cc4)[C@@H]3C2)c1 | -5 | -13
Cc1noc(C)c1S(=O)(=O)Nc1cccc2c1O[C@H](CN(C)S(=O)(=O)c1cccs1)[C@H](C)CN([C@H](C)CO)C2=O | 10 | 18
C[C@@H]1CN([C@@H](C)CO)C(=O)c2cc(NC(=O)Nc3ccccc3)ccc2O[C@@H]1CN(C)S(C)(=O)=O | 9 | 8

These rows are one share of the data, so the mix of outcomes need not match the whole.
